# Screening data as filed in PubChem BioAssay.
# Bfl-1 A1 inh = inhibitors of the anti-apoptotic protein A1, read as caspase activation; caspase activation, % (concentration not given with the values); MEF A1-2A-BIM cells, Caspase-Glo 3/7 luminescence, 3 h; percent of clofoctol response, vehicle zero; 0.066% of 330,000 active;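 active = over half of replicate activation scores above 10%, or exactly half above 10 with the replicate mean above 10; inconclusive = replicate mean below 10 yet half the replicates above 10; inactive = over half of replicates below 10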;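 note: wells of about 30 µL received 50 nL stock; many hits fall short of the cut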
# Beta apoptosis = beta cell apoptosis inhibition | INS-1E cytokine-induced death, ATP luminescence, 48 h; percent of positive-control rescue, neutral wells zero | protection from apoptosis, % (test concentration not listed) | 0.8% of 300,000 active;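 active = all replicates at 75% or more, or half of them and the mean; inconclusive = half reach 75% but not the mean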;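 note: 0% = cytokine-treated negative control wells and 100% = positive control rescue; higher means more ATP so stronger rescue from cytokine killing; wells of about 40 µL received 100 nL stock; the first replicate is given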
# LANA-H2A inh = blocks KSHV LANA binding to histone H2A/H2B | cell-free LANA-H2A/H2B peptide, fluorescence polarization | inhibition, % (concentration not given with the values) | 0.6% of 320,000 active; in the data active = inhibition mostly above about 10%, no sharp cut-off; inactive = mostly below about 6.7%;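 note: stock transfer was 7.5 nL into about 10 µL; 0% = median of vehicle wells and 100% = median of positive control wells; one replicate is shown; the record names a cut of 25% in any replicate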
# Target sequence (Q9QR71 whole entry, looked up): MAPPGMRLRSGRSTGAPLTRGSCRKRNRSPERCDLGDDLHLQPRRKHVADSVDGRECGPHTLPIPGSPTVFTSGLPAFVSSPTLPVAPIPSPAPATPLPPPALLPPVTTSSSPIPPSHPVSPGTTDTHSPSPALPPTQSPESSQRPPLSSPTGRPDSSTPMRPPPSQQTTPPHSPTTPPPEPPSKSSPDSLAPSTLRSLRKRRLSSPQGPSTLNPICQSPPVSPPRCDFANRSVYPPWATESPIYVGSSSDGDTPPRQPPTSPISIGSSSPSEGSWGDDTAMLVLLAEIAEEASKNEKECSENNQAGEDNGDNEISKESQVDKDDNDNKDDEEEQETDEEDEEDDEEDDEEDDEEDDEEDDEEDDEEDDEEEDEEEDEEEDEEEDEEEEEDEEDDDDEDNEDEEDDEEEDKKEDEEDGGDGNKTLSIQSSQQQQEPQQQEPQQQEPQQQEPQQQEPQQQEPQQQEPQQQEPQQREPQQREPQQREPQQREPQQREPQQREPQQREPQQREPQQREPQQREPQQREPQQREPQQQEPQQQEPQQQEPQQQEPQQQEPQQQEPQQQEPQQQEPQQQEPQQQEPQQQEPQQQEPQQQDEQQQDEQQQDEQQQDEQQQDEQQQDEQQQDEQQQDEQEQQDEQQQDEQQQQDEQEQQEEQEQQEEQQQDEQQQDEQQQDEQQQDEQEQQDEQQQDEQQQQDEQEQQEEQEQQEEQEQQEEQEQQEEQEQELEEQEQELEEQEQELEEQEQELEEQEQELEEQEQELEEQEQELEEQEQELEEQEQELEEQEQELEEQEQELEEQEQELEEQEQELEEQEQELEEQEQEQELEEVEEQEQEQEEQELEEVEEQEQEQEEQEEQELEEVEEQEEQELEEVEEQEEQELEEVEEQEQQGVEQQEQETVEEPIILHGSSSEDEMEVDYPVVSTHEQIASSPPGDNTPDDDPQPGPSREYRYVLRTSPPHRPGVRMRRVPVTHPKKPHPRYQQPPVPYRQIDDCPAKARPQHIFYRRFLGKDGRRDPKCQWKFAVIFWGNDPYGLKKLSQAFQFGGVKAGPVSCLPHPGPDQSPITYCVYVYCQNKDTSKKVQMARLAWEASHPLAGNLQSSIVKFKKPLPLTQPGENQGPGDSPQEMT
# ALR inh = blocks human ALR sulfhydryl oxidase activity; purified ALR, DTT oxidation, H2O2 HRP-luminol luminescence; AID 485317; P55789; inhibition, % (no concentration beside the values); 3.8% of 290,000 active;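 active = mean and each replicate at 75% or more; inconclusive = only one of the two met; inactive = neither met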;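 note: stock transfer was 7.5 nL into about 7.5 µL; 0% = neutral wells and 100% = wells with inactivated enzyme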
# T cruzi inh = blocks replication of Trypanosoma cruzi. T. cruzi beta-gal in NIH3T3, luminescence, 90 h. inhibition, % (test concentration not listed). 1.4% of 300,000 active. AID 1885;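 active = mean inhibition across valid replicates above about 55%, limit read from the data; inconclusive = mean below that limit but half or more replicates reach it; inactive = mean below it, under half of replicates reach it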;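 note: signal also drops with host cell toxicity which is not excluded here; 0% = plate median of DMSO wells and 100% = zero luminescence signal; higher percent means less beta-gal luminescence so fewer parasites; stock transfer was 50 nL into about 50 µL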
# B2AR ag = human beta-2 adrenergic receptor agonism by FAP | response, % (concentration not given with the values) | P07550 | AID 504454 | Am2.2-beta2AR cells, FAP receptor internalization, flow cytometry; reference of the scale not given here | 0.43% of 340,000 active;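 active = response above a set limit, near 3 SD of response in nonfluorescent compounds, cut at about 42% in these data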;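 note: stock transfer was 100 nL into about 11 µL; a reference agonist was the positive control; negative values mostly stem from fluorescent compounds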
# Ecoli rRNA inh = selective bacterial rRNA inhibition in E. coli; E. coli WT GFP vs humanized-ribosome RFP mutants, fluorescence, 24 h; stronger effect = lower value; DMSO median 0, no signal -100; GFP signal change (wild-type ribosome), % (test concentration not listed); 1.6% of 350,000 active; AID 720706;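 active = significant combined selectivity score with lowered wild-type GFP, culture density cut under 30%, mutant RFP and density less affected; inactive = any of these conditions unmet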; note: one replicate is shown; some compounds called inactive have numbers as strong as hits
# Calb FLC = C. albicans growth modulation with fluconazole | C. albicans CaCi-2 (fluconazole-resistant clinical isolate) + fluconazole, Alamar Blue growth, 48 h | growth inhibition, % (test concentration not listed) | 0.57% of 300,000 active;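 active = most replicates above 75%; inconclusive = exactly half above 75%; inactive = most below 75%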;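 note: all wells also contain fluconazole at 8 µg/ml as a sub-toxic cotreatment; 0% = median of DMSO wells and 100% = median of geldanamycin control wells; wells of about 8 µL received 7.5 nL stock; the first replicate is given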
# Ecoli rRNA inh OD600 = recorded beside Ecoli rRNA inh, whose call it bears; OD600 change, %; measured here: OD600 growth;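 optical density of the mix in the first replicate; 0 = DMSO median and -100 = no signal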
# Ecoli rRNA inh RFP = second read-out of Ecoli rRNA inh, no call of its own (marks repeat the call); RFP signal change, %; measured here: RFP humanized mutant strains;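 first replicate; 0 = DMSO median and -100 = no signal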
# An asterisk follows results filed as active; ? = inconclusive; nt = not tested or not shown. These rows are one share of the data (hit frequency here may not be typical).
SMILES,Bfl-1 A1 inh,Beta apoptosis,LANA-H2A inh,ALR inh,T cruzi inh,B2AR ag,Ecoli rRNA inh,Ecoli rRNA inh OD600,Ecoli rRNA inh RFP,Calb FLC
CC1=N/C(=C\c2ccc([N+](=O)[O-])cc2)C(=O)N1c1cc(Cl)ccc1C,-0.3,1,0.7,-34,-17,-10,nt,nt,nt,-9
CCCc1[nH]nc2c1C(c1cccc(OC(=O)c3ccco3)c1)C(C#N)=C(N)O2 (stereo not drawn),0.3,nt,4.1,12,0,4,nt,nt,nt,7
Cc1ccc(NC(=O)C(=O)NCC2CCCN2S(=O)(=O)c2cccs2)c(C)c1 (stereo not drawn),-0.9,-1,-10,-2,-5,-6,-13,-17,7.7,4
C/C(=N\NC(=O)c1c(C)nc2ccccn12)c1ccc(O)cc1O,1.0,88*,-1.1,-9,51,-13,2,7,-4.5,4
COc1ccccc1NC(=O)c1ccc2nc(-c3ccccc3)c(-c3ccccc3)nc2c1,0.0,-3,-6.2,-6,27,14,nt,nt,nt,?
COc1ccc(-c2n[nH]c3c2CN(C(=O)c2ccc(OC)c(OC)c2)CC3)cc1,1.0,4,0.4,-4,-7,-6,-19,-9,-6.2,-7
CN(C)c1ccc(C(CNS(=O)(=O)c2ccc([N+](=O)[O-])cc2)N2CCOCC2)cc1 (stereo not drawn),-0.9,1,1.3,32,6,-3,5,5,-2.3,-1
CNC(=O)[C@H]1O[C@@H](n2cnc3c(NCc4cccc(I)c4)ncnc32)[C@H](O)[C@@H]1O,-0.2,-7,-5.6,82*,nt,-12,0,-7,2.2,nt
COc1ccc(CNc2nc(-c3ccccc3)nn2C(=O)c2ccc([N+](=O)[O-])cc2)cc1,-0.9,3,4.6,nt,2,1,nt,nt,nt,1
O=C(NC1CCN(S(=O)(=O)c2ccc(F)cc2)CC1)c1ccco1,0.6,-5,-1.0,-3,4,-3,1,8,-2.3,22
CCN(C(=O)CSc1ccc2ccccc2c1)C1CCS(=O)(=O)C1 (stereo not drawn),-0.1,-10,-0.7,nt,5,4,10,4,-0.3,-4
O=C(Nc1ccccc1C(=O)NCCCN1CCOCC1)c1cccc([N+](=O)[O-])c1,-1.2,0,1.1,-7,22,-4,-13,5,-0.3,-3
CCOC(=O)c1c(C)[nH]c(C(=O)NNC(=O)c2ccc(C(C)(C)C)cc2)c1C,0.2,-6,-2.6,10,-23,17,nt,nt,nt,18
COc1ccccc1CNC(=O)CCc1c(C)nc2cc(-c3ccccc3OC)nn2c1C,-0.4,0,-2.2,0,21,32,-1,-10,1.5,-7
COc1ccc(N=Cc2ccc(CNS(=O)(=O)c3ccc(Cl)cc3)o2)cc1,0.3,-3,2.6,6,5,6,nt,nt,nt,-4
COC(=O)c1ccccc1N=Nc1c(C)n[nH]c1C,-1.3,-2,-3.6,nt,-10,-1,-7,-3,-0.4,-1
C=CCNc1nc(N2CCOCC2)c(C#N)c2c1CN(C)CC2,-0.8,2,2.0,nt,33,6,nt,nt,nt,0
O=C(CN1CCCCCC1)Nc1ccc(F)c(F)c1,0.0,-5,-5.0,0,nt,5,nt,nt,nt,3
Cc1cc(Cl)ccc1NC(=S)N1CCN(C(=O)C2CCCO2)CC1 (stereo not drawn),-0.1,-5,-1.0,nt,0,0,nt,nt,nt,10
Cc1cc(=O)[nH]c2ccc(S(=O)(=O)NC3CCCCC3)cc12,0.2,12,2.8,3,14,-1,8,12,5.7,-2
Cc1cccc(OCC(=O)Nc2cc(NC(=O)COc3cccc(C)c3C)cc(C(=O)O)c2)c1C,0.3,0,2.4,80*,8,3,-43,-66,7.7,-2
Cc1cccc(NC(=O)NNC(=O)c2cc3occc3[nH]2)c1C,-0.6,-6,-1.5,-2,-1,-7,17,12,8.4,3
COC(=O)COc1ccc(S(=O)(=O)N2CCCCC2)cc1[N+](=O)[O-],-1.0,2,-0.4,-7,-9,-2,19,13,2.6,0
CCOc1ncccc1C(=O)OC(C)C(=O)Nc1ccc(N2CCOCC2)cc1 (stereo not drawn),-0.3,-1,-2.4,41,nt,-3,1,4,-2.3,nt
CC(/C=C/c1ccccc1)=N\NC(=O)c1cc(C)[nH]n1,0.7,6,2.4,15,8,1,nt,nt,nt,28
# Following part:
SMILES,Bfl-1 A1 inh,Beta apoptosis,LANA-H2A inh,ALR inh,T cruzi inh,B2AR ag,Ecoli rRNA inh,Ecoli rRNA inh OD600,Ecoli rRNA inh RFP,Calb FLC
C[C@H]1CN=C(Nc2ccccc2)N1CCc1ccccc1,0.6,-8,-0.2,10,nt,-6,8,19,5.9,nt
O=C(NNC(=O)c1ccc2c(=O)n3c(nc2c1)CCC3)c1ccc(F)cc1,-0.3,-1,-2.0,-9,-4,3,8,12,1.6,nt
O=C(c1cccc(S(=O)(=O)NCc2ccccc2)c1)N1CCN(c2ccc(F)cc2)CC1,-0.1,1,8.7,3,nt,-3,-18,-46,6.1,nt
CCc1nnc(NS(=O)(=O)c2ccc(N/C=C\C(=O)c3ccc(F)cc3)cc2)s1,0.5,0,3.5,13,-8,10,-18,-11,-1.3,-34
COc1ccc(Nc2oc(-c3ccc(F)cc3)nc2C#N)cc1,-0.1,nt,3.7,2,14,6,11,13,0.9,-5
CC(=O)COc1cccc2ccc(/C=C/c3ccc(Br)s3)nc12,-0.6,-1,0.0,-8,4,3,-32,-54,5.2,11
COc1ccc(CCC(=O)Nc2ccc(OC)c(S(=O)(=O)N3CCCCC3)c2)cc1,0.8,0,-4.0,-2,nt,3,nt,nt,nt,nt
Nc1c(-c2ccccc2)cnc2ncnn12,0.1,4,7.6,2,-14,11,4,7,-3.2,17
CN(C)CCN(C)Cc1ccccc1Sc1cccc2ccccc12,0.0,13,-2.6,-13,47,12,-58,-78,-32,61
O=C(CCN1CCOCC1)NCc1ccccc1,-0.4,-4,-4.2,-4,-7,-2,17,19,0.8,-4
COc1ccc(C2=NC(=O)NC2c2ccc(OC)cc2)cc1 (stereo not drawn),-0.5,-3,-0.7,2,2,0,4,-3,2.2,1
COc1ccc(Br)cc1/C=C/C(=O)NC(=S)Nc1ccc(CN2CCOCC2)cc1,0.8,-4,-0.9,0,-9,4,5,3,-1.2,-1
COc1cccc(Oc2ccc(OC)cc2C(=O)O)c1,-0.1,-7,-0.3,-14,-8,-2,5,-1,-0.7,-3
CCOc1ccc(C(C)NC(=O)Cc2ccccc2F)cc1OCC (stereo not drawn),0.3,3,0.5,-3,6,1,4,16,0.4,-1
Cc1cc(C(=O)OCC(=O)NC2CCS(=O)(=O)C2)c2ccccc2n1 (stereo not drawn),1.4,0,-2.7,-9,-21,1,-1,4,-1.7,2
COc1ccc(OC)c2c(C)cc(NCCN3CCOCC3)nc12,1.3,9,-6.0,21,-3,-3,nt,nt,nt,-4
CCN(C(=O)Cn1nc(C)c([N+](=O)[O-])c1C)c1c(N)n(Cc2ccccc2)c(=O)[nH]c1=O,-0.1,nt,-7.5,1,-3,-1,13,12,-1.1,3
CC(C)CC(=O)Nc1cc2c3c(c1)C(C)C(=O)N3CCC2 (stereo not drawn),0.0,-5,6.7,-68,-6,-2,5,6,-2.7,-11
CCOc1cc(-c2nc3cc(C)ccn3c2NCC2CCCO2)ccc1O (stereo not drawn),0.8,-19,5.4,100*,-1,-5,nt,nt,nt,22
O=[N+]([O-])c1ccccc1Sc1nccn1Cc1ccccc1,-0.1,-6,-2.0,-4,1,-8,nt,nt,nt,0
CCSc1ccccc1C(=O)Nc1cc(OC)c(OC)c(OC)c1,0.1,-2,1.2,-1,12,-4,10,0,1.2,7
Cc1occc1C(=O)N/N=C/c1ccc2c(c1)OCO2,-14,76*,5.3,-5,7,-1,15,8,5.6,-23
Cc1ccc(OCCNCC(O)COc2ccccc2)cc1 (stereo not drawn),0.4,-7,-3.6,nt,14,-4,6,6,0.5,-4
CN1CCN(Cc2c(O)ccc3cc(Br)ccc23)CC1,0.5,3,-3.4,78*,8,nt,-28,-25,-5.9,-1
COC(OC)C1(C)C(C#N)=C(N)Oc2c1c(=O)oc1ccccc21 (stereo not drawn),2.2,0,-0.3,0,8,-2,3,-4,-0.4,0
# Further compounds follow.
SMILES,Bfl-1 A1 inh,Beta apoptosis,LANA-H2A inh,ALR inh,T cruzi inh,B2AR ag,Ecoli rRNA inh,Ecoli rRNA inh OD600,Ecoli rRNA inh RFP,Calb FLC
CCC(C)c1ccc2oc(-c3ccc(NC(=O)c4ncn[nH]4)cc3)nc2c1 (stereo not drawn),0.4,9,5.3,-6,20,-3,nt,nt,nt,65
CCN1C(=O)c2cccc3c(NC(=O)c4ccc(S(=O)(=O)N5CCOCC5)cc4)ccc1c23,0.4,-2,0.9,-10,8,-11,nt,nt,nt,-1
COC(=O)c1cc2c(s1)-c1cc(F)ccc1OC2,0.2,-8,-0.1,-7,-12,10,11,30,-1.5,-2
CCOC(=O)c1sc(NC(=O)CNCc2ccccn2)c(C(=O)OCC)c1C,0.7,27,2.1,-4,53,-8,-24,-21,1.8,-2
O=C(O)CCNC(=O)OCC1c2ccccc2-c2ccccc21,0.4,9,-0.8,0,-7,-3,12,18,-1.5,7
CC(C)(C)NC(=O)/C=C/c1cccs1,-1.3,-1,1.9,1,-6,-5,10,5,-0.2,-6
CCOC(=O)N1CCN(C(=O)CSCC(=O)Nc2nc(-c3ccc(OC)cc3)cs2)CC1,-0.7,-9,-0.6,99*,-2,-2,nt,nt,nt,40
O=C(NCC12CC3CC(CC(C3)C1)C2)c1cc2n(n1)C(C(F)(F)F)CC(c1ccco1)N2 (stereo not drawn),-0.4,-2,-1.4,-7,20,0,nt,nt,nt,-1
Cc1nc2cc(C(=O)OCC(=O)NC34CC5CC(CC(C5)C3)C4)ccc2n1-c1ccccc1,-0.2,-2,-3.9,-1,-2,-2,nt,nt,nt,2
O=C(CSc1cccc[n+]1[O-])Nc1ccc(N2CCOCC2)cc1,0.0,-4,-3.4,nt,-7,nt,-2,-3,-8.0,-23
CCOc1cccc(N2CCN(CCNC(=O)Nc3ccc(C)cc3)CC2)c1C,-1.0,nt,0.9,nt,4,17,-1,0,-0.6,-2
Cc1ccc(NC(=O)CCCc2nc3ccccc3c(=O)[nH]2)c(Cl)c1,0.3,-6,2.5,-8,nt,-6,2,4,-2.0,nt
NNC(=O)c1ccc(Cn2cc(Cl)cn2)o1,0.5,8,0.1,45,0,-1,nt,nt,nt,18
N#Cc1c(-c2ccccc2)c(-c2ccccc2)nn(CC(=O)NNC(=O)Nc2ccc(Cl)cc2)c1=O,1.4,12,-5.5,2,-23,-5,nt,nt,nt,-5
CCOC(=O)CN1C(=O)N[C@@H](c2ccc(Br)cc2)C(C(=O)OC)=C1C,0.5,-4,4.4,-6,-11,2,-1,0,0.4,11
CCN(CC)S(=O)(=O)c1cccc(C(=O)/C=C2/N(C)c3ccccc3C2(C)C)c1,0.4,28,0.4,0,57*,3,4,11,-1.5,6
O=C(Nc1cccc(-c2nn[nH]n2)c1)c1csc2c1CCCC2,1.1,-4,2.9,99*,2,7,nt,nt,nt,-4
Cn1ncc2c(NNC(=O)Cc3ccccc3)ncnc21,1.3,-7,-1.8,60,-2,20,nt,nt,nt,-2
